Screening results as filed in PubChem BioAssay.
S aureus helic: blocks Staphylococcus aureus DNA helicase. purified S. aureus helicase, fluorescence unwinding assay; about half of the hits fall short of the stated cut. inhibition, %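 (tested at about 80 µM)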. 120,000 tested, 0.05% active;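 active means both duplicates at 50% or more, or one of them with a favoured structure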;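 further: 0% = mean of negative control wells and 100% = mean of positive control wells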
MgrA-DNA mod: alters Staphylococcus aureus MgrA binding to DNA | inhibition, %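 (about 10 µg/mL by stock and volumes)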 | 84,000 tested, 0.13% active | fluorescence polarization;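 active means above 50% in either of two replicates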;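 further: 0% = protein plus DNA without compound and 100% = DNA alone without protein; higher means less MgrA bound to DNA so lower polarization; one replicate is shown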
Starred values were filed as active, the others as inactive; · = no result given; & = joins results of further samples. Only part of the results is shown; count on the stated rates, not on these rows.

SMILES	S aureus helic	MgrA-DNA mod
C/C(=N\NC(N)=O)c1ccc(-n2ccnc2)cc1	6.0	·
CCOC(=O)CC(=O)c1sc2c(c1N)c(=O)[nH]c(=O)n2-c1ccc(OC)cc1	3.0	·
CCn1c(-c2cc(C(=O)c3ccccc3O)c[nH]2)nc2ccccc21	-128.0	·
CC1CCCC(C)N1C(=O)NC1CCCCC1 (configuration not stated)	-2.0	5.2
COc1ccc(CCNC(=O)CC(c2ccccc2)c2cccc(C)c2O)cc1OC (configuration not stated)	5.0	-0.8
CC1CC(NC(=O)c2c(O)nc3ccccn3c2=O)CC(C)(C)C1 (configuration not stated)	-2.0	·
CC1CCc2c(sc(NC(=O)c3ccccc3)c2C(=O)N2CCCCC2)C1 (configuration not stated)	0.0	-4.0
CN1c2ccccc2-c2nc3ccccc3n2C1c1cccs1 (configuration not stated)	31.0	·
COC(=O)CNC(=O)c1ccc(NC(=O)Nc2cccc(C)c2)cc1	0.0	·
Cn1nnnc1SCSc1nnnn1C	-13.0	·
OC1(c2ccc(Cl)cc2)CSC(=S)N1Cc1ccco1 (configuration not stated)	8.0	·
COc1ccc(-n2cc(C(=O)NCCCN3CCCC3=O)nn2)cc1	-10.0	·
COc1ccc(/C=C/C(=O)NCc2ccccc2)cc1	-2.0	-0.6
O=c1cc(NCc2ccccc2)[nH]c(=O)[nH]1	18.0	·
COc1ccc2c(C)cc(Cl)nc2c1	17.0	-0.8
Cc1csc(=O)n1CCC(=O)OCc1nnc(-c2ccccc2)o1	-4.0	·
COc1ccc(-c2n[nH]c(=S)o2)cc1	13.0	·
Cc1ccc(S(=O)(=O)Nc2cc(Sc3ncn[nH]3)c(O)cc2C)cc1	-17.0	·
COC(=O)c1ccc(CSCc2ccc(C(=O)OC)o2)o1	-2.0	·
COc1cn(-c2ccccc2)nc1C(=O)NCc1ccccc1CN1CCCC1	-3.0	·
O=C(CNC(=O)C1CCCCC1)OCn1nnc2ccccc2c1=O	-12.0	·
COc1ccc(C2CC(c3cccs3)=NN2C(=O)CSc2nnnn2C2CC2)cc1OC (configuration not stated)	-6.0	·
CC1CC(C)CN(C(=O)c2sc3ccccc3c2Cl)C1 (configuration not stated)	4.0	·
Cc1cnc(C(=O)OCC(=O)Nc2ccc3c(c2)OCCO3)cn1	-9.0	·
Cc1ccc(NC(=O)c2ccc3ncsc3c2)cc1	·	-0.6
CC(=O)NC(C1C(=O)CC(C)(C)CC1=O)(C(F)(F)F)C(F)(F)F	-13.0	0.9
COC(=O)c1c(NC(=O)C2CC2)sc(C)c1C	25.0	9.7
c1ccc2nc3c(nc2c1)Nn1cnnc1S3	-35.0	-1.2
O=C1c2sc3nc4n(c(=O)c3c2CCC1Sc1ccccc1)CCCCC4 (configuration not stated)	-1.0	·
CCOc1cc(C2NC(=O)N(C)C(C)=C2C(=O)OCCc2ccccc2)ccc1O (configuration not stated)	·	-1.4
Cc1cccc(NCC(=O)Nc2ccc3c(c2)oc(=O)n3C)c1	37.0	·
O=C(O)/C=C/C(=O)N1CCC(C(=O)c2ccc(F)cc2)CC1	16.0	-7.4
CC(=O)Nc1ccc(-c2cn3ccccc3n2)cc1	-18.0	·
N#Cc1ccc(CSc2cccc3cccnc23)cc1	8.0	8.4
O=S1(=O)CC(O)C(Nc2ccc(Cl)cc2)C1 (configuration not stated)	14.0	3.8
C=C(C)CNc1nc(-c2ccccc2)c(-c2ccccc2)s1	6.0	1.4

Grouped by structure: the entries above with fluorine.
SMILES	S aureus helic	MgrA-DNA mod
CC(=O)NC(C1C(=O)CC(C)(C)CC1=O)(C(F)(F)F)C(F)(F)F	-13.0	0.9
O=C(O)/C=C/C(=O)N1CCC(C(=O)c2ccc(F)cc2)CC1	16.0	-7.4

The list continues.
SMILES	S aureus helic	MgrA-DNA mod
Nc1nc(SCC(=O)N2CCCC2)[nH]c(=O)c1NC(=O)c1cccs1	0.0	·
CC(CC(=O)O)n1ccnc1 (configuration not stated)	23.0	·
O=C(CSc1ncnc2sccc12)N(Cc1cccs1)c1ccc2c(c1)OCCO2	5.0	·
O=C(O)CCCc1nc(-c2cnc3n(c2=O)CCS3)no1	·	-3.2
O=C(Nc1cccc(C(F)(F)F)c1)c1cc[n+]([O-])cc1	8.0	·
CCN(CC)c1ccc(/C=N/O)c(O)c1	0.0	-0.3
O=S(=O)(Nc1ccc(Cl)c(C(F)(F)F)c1)c1cnc[nH]1	12.0	-0.1
O=C(CCC(=O)c1ccccc1)OCc1ccccc1	·	-1.4
COc1ccc(-c2nnc(SCC(=O)N/N=C/c3ccco3)n2-c2ccccc2)cc1OC	3.0	·
CCCOC(=O)CC1C(=O)NCCN1C(=S)NC(=O)Cc1ccc(Cl)cc1 (configuration not stated)	12.0	·
CC(C)OC(=O)c1sc2nc3c(cc2c1N)CN(C(C)C)CC3	-21.0	·
CCCC1=Nc2cc(C(=O)NCCN3CCN(CC)CC3)ccc2Sc2ccccc21	13.0	·
CCn1c(=O)c(C(=O)CSc2nnnn2C2CC2)c(N)n(Cc2ccccc2)c1=O	2.0	·
CCC(C)c1ccccc1NC(=O)C(C)NC(C)=O (configuration not stated)	-12.0	·
Cc1nc2c(c(C)c1CCC(=O)Nc1ccc(OC(F)(F)F)cc1)c(=O)n(C)c(=O)n2C	-8.0	·
CN(C)C(=O)CSCc1c(Cl)cccc1Cl	-13.0	·
O=C(O)Cn1c(-c2ccc(Br)cc2)nc(=S)c2c1CCCC2	13.0	9.7
Cc1cc(=O)n2c(n1)-c1ccccc1C2	-6.0	·
C/C(=N/N1CCN(c2ccccc2)CC1)c1ccccc1	33.0	·
Clc1ccc(-c2noc(CN3CCCC3)n2)cc1	·	-1.0
CCN1CCN(CCNC(=O)Nc2ccccc2C)CC1	-14.0	0.7
CCOc1ccsc1C(=O)Nc1ccc(Cl)cc1	·	-0.9
CC1CCN(C(=O)COc2ccccc2C#N)CC1	23.0	·
CC1(CC(=O)Nc2ccccc2)NC(=S)N(c2ccccc2)N1 (configuration not stated)	-2.0	2.2
N#Cc1c(-c2cccc3ccccc23)c(C#N)c2nc3ccccc3n2c1N	·	3.0
C=CCc1c(C)nc(SC)nc1Nc1ccc(OC)cc1	9.0	0.4
CC(=O)n1c(O)c(C2=NC(=S)NC2=O)c2ccccc21	-45.0	·
O=C(Nc1nnc2n1CCCS2)c1ccccc1	17.0	·
COC(=O)c1cc2sccc2n1C(C)C(=O)N1CCCc2ccccc21 (configuration not stated)	-1.0	-2.7
CCCSc1nnc(/N=C/N(C)C)s1	-19.0	·
Cc1sc2nc(-c3ccccc3O)[nH]c(=O)c2c1C	-10.0	10.6
CCn1c(NCc2nc3ccccc3n2C)nc2ccccc21	-21.0	·
COC(=O)c1cc(OC(=O)/C=C/c2ccc(C)o2)cc(C(=O)OC)c1	2.0	·
Cc1ccc(Cn2nnc3c(=O)[nH]c(C4CCN(C(=O)CC(C)(C)C)CC4)nc32)cc1	9.0	·
CCCCC(=O)Oc1cc2c(C(=O)OCC)c(C)n(-c3ccccc3)c2c2ccccc12	·	-1.0
CC(C)C(=O)NCCSc1c[nH]c2ccccc12	-6.0&11.0	·

Seven of the entries above in order of their number in MgrA-DNA mod, high to low:
mol,MgrA-DNA mod
Cc1sc2nc(-c3ccccc3O)[nH]c(=O)c2c1C,10.6
CC(=O)NC(C1C(=O)CC(C)(C)CC1=O)(C(F)(F)F)C(F)(F)F,0.9
Cc1ccc(NC(=O)c2ccc3ncsc3c2)cc1,-0.6
COc1ccc2c(C)cc(Cl)nc2c1,-0.8
CCOc1ccsc1C(=O)Nc1ccc(Cl)cc1,-0.9
CCOc1cc(C2NC(=O)N(C)C(C)=C2C(=O)OCCc2ccccc2)ccc1O (configuration not stated),-1.4
CC1CCc2c(sc(NC(=O)c3ccccc3)c2C(=O)N2CCCCC2)C1 (configuration not stated),-4.0

Following part:
SMILES	S aureus helic	MgrA-DNA mod
CCOC(=O)CC(=O)Nc1nc2ccccc2s1	-27.0	·
Cc1cc(/C=N/n2cnnc2)c(C)n1-c1cccc(I)c1	5.0	0.6
Cc1cc2nc3s/c(=C/c4ccc(-c5cc(Cl)c(C)cc5[N+](=O)[O-])o4)c(=O)n3c2cc1C	·	1.9
CCOc1cc(CCn2cnc3c([nH]c4ccc(C)cc43)c2=O)ccc1OC	-3.0	1.4
Cc1nnc(N/N=C/C(C)c2ccccc2)[nH]c1=O (configuration not stated)	11.0	·
Cc1ccc(S(=O)(=O)NCCN=Cc2ccc3c(c2)OCO3)cc1	31.0	·
O=S1(=O)N=C(N2CCCCCC2)c2ccccc21	3.0	4.0
CS(=O)(=O)c1ccc(C2=Nn3c(nnc3-c3cccs3)SC2)cc1	·	-0.8
Cc1cc(C(=O)Oc2ccc(C(=O)c3ccc(F)cc3)cc2)on1	16.0	·
COc1c(Cl)cc(Cl)cc1/C=C(\C#N)C(N)=O	4.0	0.8
CC(=O)N1CCN(CCN=CC2=C(O)CC(c3ccccc3)CC2=O)CC1 (configuration not stated)	4.0	1.5
O=C(CCSc1ccccc1)NC1CCCCC1	-5.0	·

The list goes on; the last 2 above are carried over.
SMILES	S aureus helic	MgrA-DNA mod
CC(=O)N1CCN(CCN=CC2=C(O)CC(c3ccccc3)CC2=O)CC1 (configuration not stated)	4.0	1.5
O=C(CCSc1ccccc1)NC1CCCCC1	-5.0	·
COc1ccc2nc(NC(=O)/C=C/c3cccs3)sc2c1	5.0	·
NS(=O)(=O)c1ccc(CCNc2ccccn2)cc1	-1.0	·
O=C(CSc1cn(CC(=O)N2CCOCC2)c2ccccc12)NCc1ccco1	0.0	-1.3
CCn1c(SCC(=O)NC(=O)Nc2ccccc2F)nnc1-c1ccccc1	5.0	·
O=C1CSc2ccc(C(=O)NCC3COc4ccccc4O3)cc2N1 (configuration not stated)	2.0	0.6
CCOC(=O)C1C(c2c(F)cccc2Cl)C(C(=O)OCC)C(O)(C(F)(F)F)NC1(O)C(F)(F)F (configuration not stated)	·	-2.0
O=C(NO)c1ncc(C(F)(F)F)cc1Cl	·	-0.5
COc1ccc(OCCCn2ccnc2)cc1	10.0	·
CC(C)C(=O)Nc1ccc(Cl)cc1C(=O)O	7.0	·
Cc1nn(Cc2cccc(C(=O)NN3CCCCC3)c2)c(C)c1Cl	8.0	-0.8
COc1cccc(C2C3=C(CC(C)(C)CC3=O)Nc3ccccc3N2C(C)=O)c1OC (configuration not stated)	-35.0	·
Cc1ccc2c(CNC3CCCC3)c(C(=O)O)[nH]c2c1	-24.0	·
Cn1c(=O)c2c(nc(NCc3ccc4c(c3)OCO4)n2Cc2cccc(Br)c2)n(C)c1=O	·	0.8
Cc1cc(-n2c(C)cc(C(=O)OCc3c(Cl)cccc3Cl)c2C)no1	-5.0	·
CCN(C(=O)COc1ccc(Cl)cc1C)c1ccccc1	17.0	0.8
N/C(=N\OC(=O)C1CCCCC1)c1ccccc1	28.0	·
O=C(OCC(=O)N1CCCCC1)c1cc2ccccc2cc1O	9.0	·
N#Cc1cccc2c1-c1ccccc1C2	2.0	·
Cc1cc(C)n(/N=C2\CCCc3ccccc32)c(=O)c1C#N	-12.0	·
CNC(=O)C1CCN(S(=O)(=O)c2c(C)noc2/C=C/c2cccc(C)c2)CC1	3.0	·
COc1cc(NC(=O)c2ccc(CSC3CCCCC3)cc2)cc(OC)c1OC	4.0	-8.1
O=C(NC1CCCC1)C1CCCN(S(=O)(=O)c2cccc3cccnc23)C1 (configuration not stated)	-3.0	0.3
O=C1CCCC/C1=N\Nc1ccc(N2CCCCC2)cc1	5.0	8.0
COc1ccc(-c2nc(C#N)c(NN3CCOCC3)o2)cc1	8.0	·
COc1ccc(-n2c(NN)nc3sc4c(c3c2=O)CCC4)cc1	-12.0	-0.5
NC(=O)C1(c2ccccc2)CCCN1C(=O)c1ccc(Br)cc1 (configuration not stated)	8.0	-0.6
CCn1cc(S(=O)(=O)N2CCC3(CC2)OCCO3)cn1	-1.0	-4.0
CCN1CCN(c2nc3ccccn3c(=O)c2/C=C2\SC(=S)N(CC)C2=O)CC1	-87.0	·
CC1CN(CC(C)C(=O)NN)CC(C)O1 (configuration not stated)	-7.0	·
Cc1cc(C(=O)OCn2nnc3ccccc3c2=O)c(C)o1	-1.0	·
CCNc1nc(N2CCOCC2)nc(N2CCC(Cc3ccccc3)CC2)n1	15.0	-1.8
N#Cc1ccccc1NC(=O)COC(=O)Cc1ccc(Br)cc1	28.0	-3.6
Cc1cc(NC(=O)c2ccc(COC(=O)Cn3cnnn3)cc2)ccc1Cl	-8.0	·
CCCc1cnc(N2CCN(C(=O)c3cc(C)on3)CC2)nc1	3.0	·
CCC(CO)N=Cc1ccc(O)c(OC)c1 (configuration not stated)	-9.0	8.7
Cc1ccc(C(=O)O)cc1S(=O)(=O)N1CCSCC1	2.0	-4.4
CC(c1ccn[nH]1)n1cncn1 (configuration not stated)	·	-2.2
O=C(NCCc1ccccc1)C1CCC(=O)N1Cc1ccc(F)cc1 (configuration not stated)	4.0	·
COc1ccc2c(c1)CC/C(=C\c1ccc(C)cc1)C2=O	·	2.6
Cc1cc(C)c(C#N)c(SCC(=O)N2CCCC2)n1	3.0	·
Clc1ccc(NCc2cccnc2)c(Cl)c1	·	3.4
CCCOC(=O)CSC1=C(C#N)C(c2cc(Br)c(O)c(OC)c2)CC(=O)N1 (configuration not stated)	·	-1.2
CCOC(=O)c1ccc2nc(C(F)(F)F)nc(N3CC(C)OC(C)C3)c2c1 (configuration not stated)	8.0	0.1
CC1(C)CC(=O)c2c(n(S(C)(=O)=O)c3ccc(NS(C)(=O)=O)cc23)C1	-3.0	-0.2
Cn1ccnc1C(=O)c1cc(Cl)nc2ccccc12	-8.0	-1.5
COC(=O)c1ccc(NS(=O)(=O)c2ccc(C)cc2)c(NS(=O)(=O)c2ccc(C)cc2)c1	·	2.9
COc1cc(NC2c3ccccc3C(=O)N2c2cc(C)ccn2)cc(OC)c1OC (configuration not stated)	3.0	-1.1
CS(=O)(=O)/C(C#N)=C/Nc1cccnc1	·	-1.1
S=c1[nH]nc(CCn2c3ccccc3c3ccccc32)n1-c1ccccc1	15.0	-0.9
O=C(Cc1cccs1)Nc1cccc(C(=O)Nc2ccco2)c1	8.0	-1.5
Oc1ccc(/C=N/NC(=S)N2CCOCC2)cc1	-13.0	·
